GLA inh pH 4.5 = inhibitors of human alpha-galactosidase A at pH 4.5. P06280. purified enzyme, 4-MU-alpha-Gal fluorescence, pH 4.5. activity change, negative = inhibition, % at 105 µM. 230,000 tested, under 10 active. AID 1467; inconclusive = small, poorly fitted or top-dose-only inhibition, or a rising curve; inactive = flat fitted curve, though single readings scatter; no compound was filed as active;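 further: 0% = full activity with enzyme and -100% = basal without enzyme; dose as in the result columns while the protocol names 77 µM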
Target sequence (P06280 whole entry, looked up): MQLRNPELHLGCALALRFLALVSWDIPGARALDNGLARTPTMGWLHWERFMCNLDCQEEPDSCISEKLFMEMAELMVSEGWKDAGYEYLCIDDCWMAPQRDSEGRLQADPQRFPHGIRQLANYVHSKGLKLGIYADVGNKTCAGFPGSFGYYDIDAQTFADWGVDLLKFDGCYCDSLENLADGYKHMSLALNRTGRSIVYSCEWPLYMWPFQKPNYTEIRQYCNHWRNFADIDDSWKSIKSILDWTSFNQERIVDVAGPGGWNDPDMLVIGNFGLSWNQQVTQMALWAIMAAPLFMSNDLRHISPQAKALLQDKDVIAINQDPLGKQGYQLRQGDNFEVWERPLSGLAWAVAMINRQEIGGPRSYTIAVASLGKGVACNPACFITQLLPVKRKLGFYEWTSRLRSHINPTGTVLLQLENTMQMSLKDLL
Rango complex inh = Rango-importin beta binding inhibition; Potency, µM (titrated, usually from 92.2 µM), inactives show at the highest dose inhibition of complex formation; Rango CFP/YFP FRET sensor + importin beta, 45 min; 340,000 tested, 0.031% active; AID 540263; active = rising FRET ratio curve, often small or poorly fitted; inconclusive = mostly compound fluorescence or quenching in the first reads; inactive = flat curves in all reads;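 further: potency means the concentration at half of the fitted maximal effect; 0% = DMSO wells and 100% = buffer wells lacking importin beta; nearly all actives have a fitted effect of over 15% in size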
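FRET biosensor Rango (snurportin 1 IBB between N-terminal EYFP and C-terminal Cerulean), 50 nM in PBS/1 mM DTT/0.02% Tween-20/0.1% BSA, preincubated 5 min RT with compound; 0.125 microM importin beta added, 45 min RT, CFP/YFP FRET ratio read.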
miR-21 FLuc = miR-21 reporter, rising signal; HeLa miR-21 FLuc reporter, luciferase, 48 h; Potency, µM (doses to about 38.3 µM), for inactives: at the top dose reporter change, positive = more light; 340,000 tested, under 10 active; AID 2288; active = well fitted rising curve with a large enough effect; inconclusive = small, poorly fitted or top-dose-only effect; inactive = no such curve, though single readings can be large or run the other way;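 further: % of control where 0% means no effect; miR-21 action dims this reporter so a rising signal means less miR-21 action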
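HeLa cells stably expressing CMV-driven firefly luciferase with a downstream miR-21 binding sequence, endogenously expressing miR-21, were treated with titrations (up to about 40uM final) for 48 hours at 37 degree Celsius. Luciferase luminescence was read after lysis.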
Rango release inh = prevents RanGTP from dissociating the Rango-importin beta complex. O95149+P62826. Biochemical FRET Rango-importin beta, RanGTP-induced dissociation. Potency, µM (highest dose often 46.1 µM), for inactives: top-dose activity change, negative = inhibition. 340,000 tested, 0.071% active. AID 540253; active means falling FRET ratio curve, often poorly fitted, with flat reads before Ran was added; inconclusive means other falling curves, or compound fluorescence or quenching; inactive means flat or rising ratio curve;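 further: potency means the concentration at half of the fitted maximal effect; % of control where 0% means no effect; nearly all actives have a fitted effect of over 45% in size; -100% = wells without RanGTP and RCC1; the record marks most hits as doubtful in a second field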
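Rango (0.1 uM)–importin beta (0.25 uM) complex; RanGTP-RCC1 trigger; 45 min RT; CFP/YFP FRET read.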
* marks the source's active call; other numbers are inactive results; ? = inconclusive; / = no result given; & = joins results of further samples. Not all compounds are listed, so the mix of outcomes need not match the whole.

item | GLA inh pH 4.5 | Rango complex inh | miR-21 FLuc | Rango release inh | structure
1 | / | 4.8% | / | -14% | CC(NC(=O)C1CCN(C(=O)c2cccs2)CC1)c1ccc(S(N)(=O)=O)cc1 (centres undefined)
2 | 1&0 | 0.5% | -4% | 2% | CC(=O)N1CC=CC1(C)C(=O)O (centres undefined)
3 | 9 | -0.9% | -4% | 0% | COc1cccc(C2(O)CCN(C(=O)C3CCC3)CC2)c1
4 | -3 | 3.3% | -16% | 2% | COc1ccccc1NC(=O)c1ccc(NC(=O)CSc2n[nH]c(N)n2)cc1
5 | / | -0.3% | -2% | 11% | COc1ccccc1N1CCN(C(=O)CNC(=O)Cn2cnc3sc(C)c(C)c3c2=O)CC1
6 | -5 | 0.2% | 0% | -5% | COc1cccc(Oc2c(C)oc3c(CN4CCCC4)c(O)ccc3c2=O)c1
7 | / | 5.2% | / | -12% | O=C(NCc1ccco1)c1cc(-c2ccccc2)nn1CC1CC(c2cccnc2)=NO1 (centres undefined)
8 | 2 | 5.2% | 0% | -15% | NC(=O)c1ccc(N2CCOCC2)nc1
9 | -20 | -1.1% | -1% | -2% | Cc1cnc(NC(=O)C(C)N2CCN(C)CC2)s1 (centres undefined)
10 | -6 | -0.3% | 5% | -14% | COc1ccc(NC(=O)COc2nsnc2N2CCCCC2)cc1
11 | 3 | 5.7% | 5% | ? | COc1cc(C(=O)OCC(=O)NC2CCS(=O)(=O)C2)ccc1OCc1c(C)noc1C (centres undefined)
12 | -1 | 8.3% | 5% | 7% | CC(C)CNC(=O)CC(c1ccccc1)c1ccccc1
13 | / | -0.8% | / | -8% | CC1CC(C)CN(C(=O)c2cc(S(=O)(=O)N3CCCCC3)ccc2Cl)C1 (centres undefined)
14 | / | -0.8% | / | -2% | COc1ccc(-n2nnc3c(SCC(=O)N4CCCc5ccccc54)ncnc32)cc1
15 | / | ? | / | -16% | COc1ccc(-c2cccc(-c3nc4ccc(Cl)cn4c3NC3CCCCC3)c2)cc1
16 | -14 | -1.5% | -5% | -1% | C=CCNC(=O)c1cc2cccc(OC)c2oc1=O
17 | 6 | -0.3% | -10% | 11% | CC1=NN(c2ccc(C(F)(F)F)cn2)C(=O)C1
18 | -6 | ? | 0% | -5% | O=C(Nc1ccc(O)c(-c2nc3ccccc3o2)c1)C1(c2ccccc2)CCCC1
19 | 6 | 1.3% | -2% | -3% | CC1CCCCN1S(=O)(=O)c1ccc(C(=O)Nc2nnc(-c3ccccn3)o2)cc1 (centres undefined)
20 | -10 | 1.4% | -1% | 9% | CC(C)CC1(C)NC(=O)N(Cc2cc([N+](=O)[O-])cc3c2OCOC3)C1=O (centres undefined)
21 | / | -3.1% | / | -3% | Cc1ccc(NC(=O)C2CC2)cc1S(=O)(=O)N1CCOCC1
22 | 3 | -1.7% | -12% | ? | CCOc1ccc(C2=[N+]([O-])C(C)(C)N(O)C2(C)C)cc1
23 | / | ? | / | 10% | O=C1CCC[C@@H]2C[C@@]3(C[C@@H]4CCN1[C@H]24)Nc1cc(Cl)ccc1NC3=NC1CCCCC1
24 | / | -3.0% | / | ? | CC(SC1=Nc2ccccc2C2CC=NN12)C(=O)NC1(C#N)CCCCC1 (centres undefined)
25 | 3 | -6.5% | -1% | 1% | O=C(Cn1nc(C(F)F)cc1C(F)F)NNC(=S)Nc1ccc(Cl)cc1
26 | / | 3.1% | -15% | -10% | CCOC(=O)C1(Cc2ccc(OC)cc2)CCN(C(=O)c2cc(C)on2)CC1
27 | -11 | -1.1% | 0% | 1% | O=C1CN(C(=O)COC(=O)c2cccc(S(=O)(=O)NCc3ccccc3)c2)c2ccccc2N1
28 | -6 | 3.2% | -7% | -4% | O=C(CSc1ccc(-c2ccco2)nn1)NCc1ccccc1
29 | 8 | -2.8% | -54% | 7% | CCCc1cc(C(=O)Nc2ccccc2SC)no1
30 | 12 | ? | 4% | -9% | CCOC(=O)c1nc2sc(C)c(C)c2c(=O)[nH]1
31 | -3 | -3.6% | -4% | -10% | C=CCn1c(SCC(=O)N(C)C2CCS(=O)(=O)C2)nnc1-c1ccncc1 (centres undefined)
32 | -4 | -1.3% | 6% | 46% | Cc1ccc(OCC(=O)N2N=C(c3ccncc3)CC2(O)C(F)(F)F)cc1C (centres undefined)
33 | -2 | -0.3% | -16% | -22% | Cc1cc(=O)[nH]c(SCC(=O)c2ccc(C)c(C)c2)n1
34 | -3 | -2.2% | 1% | -16% | C=CCOc1ccc(NC(=O)C(=O)NCCCn2ccnc2)cc1
35 | 0 | 0.5% | -7% | -4% | CC(Sc1ncc(C#N)c(N)n1)C(=O)Nc1ccccc1 (centres undefined)
36 | -29 | 3.4% | -2% | 3% | COc1cccc(NC(=O)Cc2c(C(=O)O)[nH]c3ccccc23)c1
37 | 4 | 3.3% | -4% | -18% | c1coc(Cn2nnnc2CN2CCN(C3CCCC3)CC2)c1
38 | 2 | -1.0% | 1% | 13% | CC(=O)c1cccc(NC(=O)Nc2c(C)nn(C)c2C)c1
39 | -2 | ? | -1% | ? | CC1=C(C#N)C(Nc2ccc(C)cn2)(C(F)(F)F)C(=O)N1 (centres undefined)
40 | / | 0.2% | / | -4% | CCOc1ccccc1C(=O)OCC(=O)Nc1cc(S(=O)(=O)N2CCOCC2)ccc1C

Next section (5 carried over from the part before).
item | GLA inh pH 4.5 | Rango complex inh | miR-21 FLuc | Rango release inh | structure
36 | -29 | 3.4% | -2% | 3% | COc1cccc(NC(=O)Cc2c(C(=O)O)[nH]c3ccccc23)c1
37 | 4 | 3.3% | -4% | -18% | c1coc(Cn2nnnc2CN2CCN(C3CCCC3)CC2)c1
38 | 2 | -1.0% | 1% | 13% | CC(=O)c1cccc(NC(=O)Nc2c(C)nn(C)c2C)c1
39 | -2 | ? | -1% | ? | CC1=C(C#N)C(Nc2ccc(C)cn2)(C(F)(F)F)C(=O)N1 (centres undefined)
40 | / | 0.2% | / | -4% | CCOc1ccccc1C(=O)OCC(=O)Nc1cc(S(=O)(=O)N2CCOCC2)ccc1C
41 | -8 | ? | 2% | -23% | CCN(CC)S(=O)(=O)c1ccc(Cl)c(NC(=O)COC(=O)/C=C/c2ccc(O)c(OC)c2)c1
42 | 1 | 2.4% | -9% | -24% | C/C(CC1CC(COCC(C)C)OC1=O)=N\Nc1nc(-c2ccccc2)cs1 (centres undefined)
43 | / | -0.6% | 5%&14% | 13% | Cc1nc2sccn2c(=O)c1S(=O)(=O)Nc1ccc(N2CCN(C(=O)C(C)C)CC2)cc1
44 | 1 | ? | -9% | 12% | O=C(Nc1ccc(Oc2ccc(NC(=O)Nc3ccccc3Cl)cc2)cc1)Nc1ccccc1Cl
45 | / | 1.7% | 8% | 4% | CC(C)CCC(C)NC(=O)CN1C(=O)NC(C)(c2ccc3ccccc3c2)C1=O (centres undefined)
46 | / | -1.7% | / | -11% | CCCCC(=O)c1ccc(OC(=O)c2ccc([N+](=O)[O-])cc2)cc1
47 | / | 1.3% | / | -11% | C[C@@H]1CN([C@H](C)CO)C(=O)c2cc(NC(=O)Nc3ccc(C(F)(F)F)cc3)ccc2O[C@H]1CN(C)C(=O)Nc1ccc(F)cc1
48 | / | 0.0% | / | 2% | C=CCN(Cc1cccs1)C(=O)COc1ccc2c(c1)OCO2

Compounds 43 to 48, reprinted for reference:
item | GLA inh pH 4.5 | Rango complex inh | miR-21 FLuc | Rango release inh | structure
43 | / | -0.6% | 5%&14% | 13% | Cc1nc2sccn2c(=O)c1S(=O)(=O)Nc1ccc(N2CCN(C(=O)C(C)C)CC2)cc1
44 | 1 | ? | -9% | 12% | O=C(Nc1ccc(Oc2ccc(NC(=O)Nc3ccccc3Cl)cc2)cc1)Nc1ccccc1Cl
45 | / | 1.7% | 8% | 4% | CC(C)CCC(C)NC(=O)CN1C(=O)NC(C)(c2ccc3ccccc3c2)C1=O (centres undefined)
46 | / | -1.7% | / | -11% | CCCCC(=O)c1ccc(OC(=O)c2ccc([N+](=O)[O-])cc2)cc1
47 | / | 1.3% | / | -11% | C[C@@H]1CN([C@H](C)CO)C(=O)c2cc(NC(=O)Nc3ccc(C(F)(F)F)cc3)ccc2O[C@H]1CN(C)C(=O)Nc1ccc(F)cc1
48 | / | 0.0% | / | 2% | C=CCN(Cc1cccs1)C(=O)COc1ccc2c(c1)OCO2

More results follow:
item | GLA inh pH 4.5 | Rango complex inh | miR-21 FLuc | Rango release inh | structure
49 | -5 | -1.1% | 1% | -11% | COc1ccc(C(NC(=O)/C=C/c2ccco2)c2ccc(OC)c(OC)c2)cc1OC
50 | -8 | -7.3% | -4% | -4% | COc1ccc(CCNC(=O)C2CCC(CNc3c(N4CCCC4)c(=O)c3=O)CC2)cc1OC (centres undefined)
51 | -10 | 1.0% | -49% | 12% | COc1ccc(NC(=O)c2cc(F)c(F)cc2Cl)cc1Cl
52 | 5 | 0.6% | -2% | 1% | COc1ccc(N(C(=O)CNC(=O)c2cccs2)C(C(=O)NCC2CCCO2)c2ccc(OC)c(OC)c2)cc1 (centres undefined)
53 | / | -2.9% | 4% | 3% | CCOc1cccc2sc(N(CCCN(C)C)C(=O)c3ccc(S(=O)(=O)N(C)CC4CCCO4)cc3)nc12 (centres undefined)
54 | / | -0.2% | -3% | 3% | COc1ccccc1CNC(=O)C(NC(=O)Nc1ccccc1)C(C)C (centres undefined)
55 | 0 | / | 1% | / | Cc1ccc(CNC(=O)CC2Nc3c4ccccc4nc(=S)n3C2=O)cc1 (centres undefined)
56 | / | -0.7% | -2% | 0% | O=C(CN1CCOCC1)NCCNS(=O)(=O)c1ccccc1
57 | -3 | 2.4% | 3% | -7% | COC(=O)C1C(C(=O)OC)C1(c1ccccc1)c1ccccc1 (centres undefined)
58 | -13 | -1.1% | -45% | 1% | N#CC1=C2SC=C(c3ccc(Br)cc3)N2CCCC1=O
59 | / | 3.2% | / | -2% | CC(C)C[C@H]1CNC(=S)N1CC1CCN(CCCC2CCCC2)CC1
60 | / | -0.1% | -6% | -9% | CCOC(=O)N1CCN(C(=O)C2CCN(C(=O)c3ccc(C(C)(C)C)cc3)CC2)CC1
61 | 2 | 3.9% | -3% | 8% | O=S(=O)(c1ccccc1)N1CCN=C1SCc1ccc(Cl)c(Cl)c1
62 | 7 | 0.8% | -2% | 0% | CCOC(=O)c1c(C)[nH]c(C(=O)OCC(=O)N(C)C2CCS(=O)(=O)C2)c1C (centres undefined)
63 | / | 1.5% | -10% | 9% | C=C(C)COc1ccc(-c2ncncc2-c2ccc(OC)cc2)c(O)c1
64 | 5 | 1.0% | 15% | -20% | CCOc1cccc(OCCCCn2ccnc2)c1
65 | 4 | 0.6% | -8% | 3% | OC(c1ccccc1)c1nc2ccccc2s1 (centres undefined)
66 | 3 | 2.5% | 0% | 1% | O=C(O)CCNS(=O)(=O)c1ccc2ccccc2c1
67 | -4 | 0.2% | -1% | -7% | COc1ccc(S(=O)(=O)N(C)CC(=O)Nc2cccc(C(C)=O)c2)cc1
68 | / | 0.1% | -7% | 10% | Cc1ccc(S(=O)(=O)N2CCCCC2)cc1
69 | / | 0.0% | 0% | 0% | O=C(NCCc1ccc(Cl)cc1)c1ccc(NC2=NC3CS(=O)(=O)CC3S2)cc1 (centres undefined)
70 | -5 | -1.6% | -1% | 2% | Cc1cc(/C=C2\C(=N)N3N=C(C(C)C)SC3=NC2=O)c(C)n1Cc1ccccc1
71 | 3 | 2.0% | 24% | -16% | NC(=S)N/N=C/c1ncc(C(F)(F)F)cc1Cl
72 | 2 | -3.7% | 3% | 5% | NS(=O)(=O)c1ccc(NC(=O)COC(=O)CCc2c[nH]c3ccccc23)cc1

Copied from the list.
NS(=O)(=O)c1ccc(NC(=O)COC(=O)CCc2c[nH]c3ccccc23)cc1 | Rango release inh: 5%
Cc1ccc(S(=O)(=O)N2CCCCC2)cc1 | Rango release inh: 10%

Next section:
item | GLA inh pH 4.5 | Rango complex inh | miR-21 FLuc | Rango release inh | structure
73 | / | -7.0% | -3% | -5% | O=C(CNC(=O)c1cccs1)OCc1c(F)cccc1Cl
74 | -6 | -3.7% | -2% | 1% | CCOC(=O)C1(Cc2ccc(Cl)cc2)CCN(Cc2ccon2)CC1
75 | / | 1.6% | -13% | 18% | COc1ccc(-c2oc3ccc(N4CCOCC4)cc3c2/C=C/c2ccc(OC)c(OC)c2)cc1
76 | 3 | 1.5% | -5% | 3% | Cc1cc2cc(C)c(NCCNC(=O)c3cccs3)nc2cc1C
77 | -20 | -0.3% | 0% | 0% | O=C(CSc1nncs1)NC1CCCc2ccccc21 (centres undefined)
